From PubChem BioAssay
GIRK2 act – GIRK2 channel activation; calls only for hits at 25 µM; HEK293-GIRK2 thallium flux, Thallos fluorescence; P48051; 63,000 tested, 0.05% active; AID 1259325;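 active means among the strongest 0.2% of first-round signals and kept after retests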;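 further: first round at about 10 µM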
Target sequence (P48051 whole entry, looked up): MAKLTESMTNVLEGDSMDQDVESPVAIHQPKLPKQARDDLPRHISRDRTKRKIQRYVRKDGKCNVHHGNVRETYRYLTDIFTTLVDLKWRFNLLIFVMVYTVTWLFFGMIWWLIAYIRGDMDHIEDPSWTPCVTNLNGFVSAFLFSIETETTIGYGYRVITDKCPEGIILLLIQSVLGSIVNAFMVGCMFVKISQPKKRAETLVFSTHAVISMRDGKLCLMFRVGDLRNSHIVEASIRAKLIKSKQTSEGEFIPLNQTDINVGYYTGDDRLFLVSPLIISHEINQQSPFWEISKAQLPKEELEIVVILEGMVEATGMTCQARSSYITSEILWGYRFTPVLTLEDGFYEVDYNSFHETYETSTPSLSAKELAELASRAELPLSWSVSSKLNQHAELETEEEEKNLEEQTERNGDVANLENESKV
Calls only; i = inactive.

GIRK2 act | molecule
i | Cc1nc(NCCNC(=O)Nc2ccc3c(c2)OCO3)cc(N2CCOCC2)n1
i | O=C(NCc1cc(-c2ccncc2)n(C2CCCC2)n1)c1cc(=O)c2ccccc2o1
i | CCCCCC/C=C\CCCC(=O)CC(=O)N[C@H]1CCOC1=O
i | COC(=O)N1CCC(CNC(=O)Nc2ccc(C(F)(F)F)cc2)CC1
i | Cc1nc(C)c(-c2ccc(OCCNC(=O)c3ccc4ncsc4c3)nn2)s1
i | COC(=O)c1ccc(S(=O)(=O)N2CCNCC2)cc1
i | CN1CC(C(=O)N2CCC3(CCc4ccccc4O3)CC2)CC1=O (stereo not given)
i | O=C(CCS(=O)(=O)c1ccccc1)NCC#CCN1CCCCC1
i | CC(=O)Nc1ccc(S(=O)(=O)N2CCN(CC(O)COc3ccc4ccccc4c3)CC2)cc1 (stereo not given)
i | Cc1cc(C)c(S(=O)(=O)NCCC(C)C)c(C)c1N(C)S(C)(=O)=O
i | COc1ccc(-c2nn3c(NCc4ccccc4)cc(C)nc3c2C)cc1OC
i | COc1ccc(-n2c3c(c(=S)[nH]c2=O)CCC3)cc1OC
i | COc1ccc(-n2ccn(Cc3cccc(C)c3)c(=O)c2=O)cc1
i | CCC(=O)N1CCCC(c2nnc(-c3ccc4c(c3)OCO4)o2)C1 (stereo not given)
i | CCc1ccc(S(=O)(=O)N2CC(Oc3nc4ccccc4s3)C2)s1
i | COc1ccc(S(=O)(=O)N2CCC(C(N)=O)CC2)c(C)c1C
i | CCOc1ccccc1NC(=O)N1CCc2c(c(=O)c3cc(C)cc(C)c3n2C)C1
i | COCCN1CCC(CNC(=O)c2cc(C)oc2C)CC1
i | CN1CCN(Cc2nc3c(c(=O)n(C)c(=O)n3C)n2Cc2c(Cl)cccc2Cl)CC1
i | O=C(NCc1ccccc1C(F)(F)F)c1ccc(Oc2nccnc2N2CCOCC2)cc1
i | O=C(NCCCc1ccccc1)C(=O)c1cn(CC(=O)N2CCOCC2)c2ccccc12
i | O=C(Cc1nc(-c2cccnc2)n[nH]1)NCCc1ccccc1
i | COc1cc(OC)c(OC)cc1/C=C1\Oc2cc(OS(=O)(=O)c3ccccc3)ccc2C1=O
i | NS(=O)(=O)c1ccc(NC(=O)c2cc3c(cc2Br)OCCO3)cc1
i | Cc1ccc(Cn2c(=O)c3ccccc3n(Cc3nc(-c4ccccc4)no3)c2=O)cc1
i | COc1ccc(-c2ccc(=O)n(CCCC(=O)NC(C)C)n2)cc1
i | CCOC(=O)N1CCc2c(sc(NC(=O)c3ccccc3F)c2-c2nc3ccccc3s2)C1
i | O=C(CNC(=O)c1ccc(=O)[nH]c1)Nc1nc(-c2ccco2)cs1
i | COc1cc2c(c(OC)c1OC)-c1c(cc3c(c1OC)OCO3)C[C@H](C)[C@@](C)(O)C2
i | Cc1cc(C(=O)NCC2CCN(Cc3cccs3)CC2)no1
i | Cc1cc(C)n(-c2ccc(C(=O)NCc3ccc(S(N)(=O)=O)cc3)nn2)n1
i | O=c1ccc(-c2cccc(Br)c2)nn1Cc1cccc(F)c1
i | O=C(c1cc2ccccc2[nH]1)N1CCC(c2nnc(C3CC3)o2)CC1
i | O=C(Nc1nc2c(s1)CN(C(=O)c1cc(-c3ccccc3)on1)CC2)c1ccco1
i | Cc1c(C)n2c3c(=O)[nH]c(=O)n(C)c3nc2n1CCC(c1ccccc1)c1ccccc1
i | CCCCC/C=C\C/C=C\C/C=C\C/C=C\CCCC(=O)OCc1ccsc1
i | CC(=O)N1CCN(S(=O)(=O)c2cccc(C(=O)Nc3ccc(Cl)cc3)c2)CC1
i | COc1ccc(N2CCN(CCCn3c(C)c(C)n4c5c(=O)[nH]c(=O)n(C)c5nc34)CC2)cc1
i | COc1ccc(-n2c(=O)c3sccc3n(Cc3nc(-c4ccccc4Cl)no3)c2=O)cc1
i | Cc1ccccc1OCC(=O)N1C2CCC1COC2
i | Cc1nnsc1C(=O)N1CCC2(CC1)OCCCO2
i | COC(=O)c1ccc(Cn2cnc3c(-c4cccc(F)c4)csc3c2=O)o1
i | Cn1nnn(-c2ccc(NC(=O)c3cc4ccccc4o3)cc2)c1=O
i | CC(C)(C)C(O)CCNC(=O)c1ccc(F)cc1Cl (stereo not given)
i | CC(CCc1ccco1)Nc1ncc2c(=O)n(Cc3ccccc3F)c(=O)[nH]c2n1 (stereo not given)
i | O=c1cccnn1CCNS(=O)(=O)c1cccc(Cl)c1Cl
i | O=C(Cn1c(=O)oc2ccccc21)N1CCC(Oc2nc3c(Cl)cccc3s2)CC1
i | O=C(CSc1nnc(N2CCN(c3ccc(F)cc3)CC2)s1)Nc1ccc2c(c1)OCO2
i | O=c1[nH]c2ccccc2nc1-c1ccccc1NS(=O)(=O)c1ccc([N+](=O)[O-])cc1
i | Cc1ccc(C)c(Cn2c(=O)c3c(nc4n(CCO)c(C)c(C)n34)n(C)c2=O)c1
i | CN1CCCC(C(=O)NCCCOc2cccc3cccnc23)C1 (stereo not given)
i | CCSc1ccccc1C(=O)Nc1nnc(-c2ccsc2)o1
i | Cc1cc(N2CCN(C(=O)c3ccco3)CC2)n2nc(C)c(-c3ccc(Cl)cc3)c2n1
i | CCNC(=O)c1ccc(N(C)S(=O)(=O)c2ccc(C)cc2)cc1
i | CCOc1ccccc1-c1noc(Cn2c(=O)n(-c3ccc(F)cc3)c(=O)c3sccc32)n1
i | Cc1nc(-c2ccccc2Cl)sc1CNC(=O)Cn1cncn1

New compounds follow:
GIRK2 act | molecule
i | COc1ccc2c(c1)c(CC(=O)Nc1ccc(SC)cc1)c(C)n2C(=O)c1ccc(Cl)cc1
i | COc1cccc(-n2nnc(C(=O)Nc3ccc(S(N)(=O)=O)cc3)c2C)c1
i | CC(Cc1ccco1)NS(=O)(=O)CCN1C(=O)CCCC1=O (stereo not given)
i | COc1cccc(CNC(=O)Cn2c(=O)nc(-c3ccccc3)c3ccccc32)c1
i | COc1ccc(-c2cc(C(=O)N3CCC(NC(=O)c4ccc(F)c(F)c4)CC3)[nH]n2)cc1
i | Cc1nc2ccc(NC(=O)c3cc([N+](=O)[O-])cc([N+](=O)[O-])c3)cc2c(=O)n1-c1ccccc1
i | O=C(CCc1ccccc1)N(CCN1CCOCC1)c1nc2ccc(Br)cc2s1
i | CC(=O)c1ccc(NC(=O)Cn2nc3ccc(-c4ccc(C)cc4)nn3c2=O)cc1
i | COc1ccc(-c2c(C)oc3c4c(ccc3c2=O)OCN(CC2CCCO2)C4)cc1OC (stereo not given)
i | COc1ccc(OC)c(NC(=O)CSc2nc3sc(C)cc3c(=O)n2C)c1
i | COc1ccccc1Nc1nn2c(=O)c3cc(C)ccc3nc2s1
i | CSCC(C)(O)CNC(=O)C1(c2ccccc2)CCOCC1 (stereo not given)
i | O=S(=O)(Nc1nc2ccccc2[nH]1)c1ccc(F)cc1
i | O=C1N(c2ccc(F)cc2)C2CS(=O)(=O)CC2N1c1ccccc1Cl (stereo not given)
i | COc1ccc(C(=O)Nc2cc(C)nn2-c2nc(-c3ccc(OC)c(OC)c3)cs2)c(OC)c1
i | Cc1noc(C2CN(CC(=O)N3CCN(c4ccc(Cl)cc4)CC3)C2)n1

15 entries from above, as a markdown table:
| compound | GIRK2 act |
| --- | --- |
| O=C(CCS(=O)(=O)c1ccccc1)NCC#CCN1CCCCC1 | i |
| CC(=O)Nc1ccc(S(=O)(=O)N2CCN(CC(O)COc3ccc4ccccc4c3)CC2)cc1 (stereo not given) | i |
| Cc1cc(C)c(S(=O)(=O)NCCC(C)C)c(C)c1N(C)S(C)(=O)=O | i |
| COc1ccc(-c2nn3c(NCc4ccccc4)cc(C)nc3c2C)cc1OC | i |
| COc1ccc(-n2c3c(c(=S)[nH]c2=O)CCC3)cc1OC | i |
| COc1ccc(-n2ccn(Cc3cccc(C)c3)c(=O)c2=O)cc1 | i |
| CCC(=O)N1CCCC(c2nnc(-c3ccc4c(c3)OCO4)o2)C1 (stereo not given) | i |
| CCc1ccc(S(=O)(=O)N2CC(Oc3nc4ccccc4s3)C2)s1 | i |
| COc1ccc(S(=O)(=O)N2CCC(C(N)=O)CC2)c(C)c1C | i |
| CCOc1ccccc1NC(=O)N1CCc2c(c(=O)c3cc(C)cc(C)c3n2C)C1 | i |
| COCCN1CCC(CNC(=O)c2cc(C)oc2C)CC1 | i |
| CN1CCN(Cc2nc3c(c(=O)n(C)c(=O)n3C)n2Cc2c(Cl)cccc2Cl)CC1 | i |
| O=C(NCc1ccccc1C(F)(F)F)c1ccc(Oc2nccnc2N2CCOCC2)cc1 | i |
| O=C(NCCCc1ccccc1)C(=O)c1cn(CC(=O)N2CCOCC2)c2ccccc12 | i |
| O=C(Cc1nc(-c2cccnc2)n[nH]1)NCCc1ccccc1 | i |

Additional results.
GIRK2 act | molecule
i | Cc1cn2c3c(=O)n(Cc4ccccc4)c(=O)n(C)c3nc2n1CCCl
i | O=C(c1cnc2ccccc2n1)N1C2CCC1COC2
i | Cc1ccc(C)c2sc(N(C)CC(=O)NCc3nc4ccccc4[nH]3)nc12
i | COC1CCN(S(=O)(=O)c2ccc(C)c(C)c2)CC1
i | C#CCn1c(-c2cccs2)nc2ccccc21
i | Cn1c(CN2CCN(CC(=O)Nc3ccc4c(c3)OCCO4)CC2)nc2ccccc21
i | COc1ccc(-c2coc3c4c(ccc3c2=O)OCN(CCCN2CCOCC2)C4)cc1
i | Cc1nc2c(c(=O)n1CC(=O)Nc1cccc(Br)c1)CCCC2
i | COc1ccc(C(=O)N2CCC3(CC2)NC(=O)c2cc(Cl)ccc2N3C)cc1OC
i | CCCN1CCCc2cc(CCNC(=O)C(=O)Nc3ccc(C)c(Cl)c3)ccc21
i | CC(C)C(=O)c1c(O)cc(O)c(C(C2=C(O)C(C)(C)C(=O)C(C)(C)C2=O)C(C)C)c1O (stereo not given)
i | CC(C)(C)c1ccc2c(c1)N(Cc1nc(-c3ccc(Br)cc3)no1)C(=O)CO2
i | COc1cccc(-c2csc(N)n2)c1
i | COc1ccccc1C(=O)N1CCN(c2oc(-c3cccc(Cl)c3)nc2C#N)CC1
i | COc1ccccc1N1CCN(c2nccnc2SCC(=O)Nc2ccc3c(c2)OCO3)CC1
i | Cc1ccc2c(c1)CCCN2C(=O)C1CCN(c2ccc(-n3cccn3)nn2)CC1
i | CCOC(=O)COc1ccc2c(=O)c(-c3ccc(Cl)cc3)c(C(F)(F)F)oc2c1
i | O=C(NCc1ccc(C(=O)c2cccs2)s1)NC1CCCC1
i | O=C(CSc1nc2[nH]ncc2c(=O)n1-c1ccccc1)Nc1ccc(F)cc1
i | COc1cccc2cc(C(=O)Nc3ccc4c(c3)CC(=O)N4)oc12
i | CC(C)c1ccc(C2c3c(oc4ccc(Cl)cc4c3=O)C(=O)N2C)cc1 (stereo not given)
i | O=C(CCc1csc(NC(=O)c2ccc(=O)[nH]c2)n1)NCC1CCCCC1
i | COc1ccc(Cl)cc1NC(=O)N1CCC(COCc2ccccc2)CC1
i | Cc1ccc(S(=O)(=O)c2cnc(SCC(=O)Nc3ccc(Cl)cc3)[nH]c2=O)c(C)c1
i | CCOC(=O)N1CCN(C(=O)C2CCCN(c3ccc(-c4ccc(C)c(C)c4)nn3)C2)CC1 (stereo not given)
i | O=C(Nc1cccs1)N(Cc1ccsc1)C1CC1
i | O=C(NCCCc1ccccc1)NCCCN1CCN(c2ccccc2)CC1
i | COc1cccc(Oc2cnc(N)nc2-c2ccc(OCc3ccccc3F)cc2O)c1
i | O=S(=O)(NCc1cc(-c2cccs2)n(C2CCCC2)n1)c1cccs1
i | Cn1nc(C(=O)N2CCN(C(=O)C3CC3c3ccccc3)CC2)ccc1=O (stereo not given)
i | Cc1cccc(N(Cc2cccc(F)c2)S(=O)(=O)c2cccn3c(C)nnc23)c1
i | O=c1cc(-c2ccccc2)nc(SCc2nc(-c3ccc(F)c(Br)c3)no2)[nH]1
i | O=C(Nc1cccc(Br)c1)c1nnn(-c2ccc(Cl)cc2)n1
i | CCCCOC(=O)c1ccc(NC(=O)CSc2nnc(CCc3nc4ccccc4[nH]3)o2)cc1
i | CC/C=C\C/C=C\C/C=C\C/C=C\C/C=C\CCCCCC(=O)O
i | O=c1cccnn1CCCNS(=O)(=O)c1cccc(Cl)c1
i | CCOC(=O)c1cccc(NS(=O)(=O)c2c(C(=O)OC)sc3ccccc23)c1
i | Cc1cc(CCNC(=O)Cc2cccc3ccccc23)on1
i | CCCCOc1ccc(-c2cc3c(=O)n(Cc4nc(-c5cccc(OC)c5)no4)ccn3n2)cc1
i | O=C(/C=C/c1ccco1)Nc1cnc(Oc2ccccc2)nc1
i | O=C(Nc1ccc2c(c1)OCCO2)c1nnn(-c2ccc(Br)cc2)n1
i | COc1ccc(Cl)cc1S(=O)(=O)NCC1CCN(C(=O)c2cccnc2)CC1
i | O=C(Nc1ccc(F)cc1)Nc1ccc2c(c1)N(S(=O)(=O)c1cccs1)CCC2
i | COc1ccc(NC(=O)Cn2nc3c(Oc4cccc(C)c4C)nccn3c2=O)cc1Cl
i | CC(=O)N1CCc2ccc(NC(=O)c3ccc4nsnc4c3)cc21
i | O=C(Nc1ccc2c(c1)CCCN2S(=O)(=O)c1ccccc1)c1ccccc1
i | CCC(CO)NCCNC(CC)CO (stereo not given)
i | Cc1ccccc1OCC(=O)NCC(c1cccs1)N(C)C (stereo not given)
i | Cc1cc(=O)n2c(-c3cccc(NC(=O)c4ccc(F)cc4)c3)csc2n1
i | CCCCCn1c(=O)c2c(nc3n2CC(C)CN3c2ccc(Oc3ccccc3)cc2)n(C)c1=O (stereo not given)
i | COc1ccc(S(=O)(=O)N2CCCN(S(=O)(=O)c3ccc(OC)c(OC)c3)CC2)cc1OC
i | CCOc1ccc(NC(=O)CSc2nccnc2N2CCN(c3ccccc3)CC2)cc1
i | Cc1noc(C)c1S(=O)(=O)N1CCC2(CC1)OCCS2
i | Cc1ccccc1-n1c(=S)sc2c(=O)[nH]c(SCC(=O)NC3CCCC3)nc21
i | Cn1nc(-c2ccccc2)cc1C(=O)NC1CNC(=O)C1 (stereo not given)
i | CCc1ccc(S(=O)(=O)NCCNC(=O)c2ccc(NC(=O)C3CCCC3)cc2)s1
i | CCOC(=O)CCn1c(=O)c2c(nc3n(-c4ccc(CC)cc4)c(C)c(C)n23)n(C)c1=O
i | CCOc1ccc(N2CC(C)Cn3c2nc2c3c(=O)n(CC(=O)O)c(=O)n2C)cc1 (stereo not given)

Some of the compounds tested; count on the stated rates, not on these rows.
